Ecoli rRNA inh: reduced GFP signal of wild-type E. coli, primary screen, bacterial rRNA inhibitor project, GFP/RFP fluorescence, OD600, single point; AID 720706, 2013; E. coli WT GFP vs humanized-ribosome RFP mutants, 24 h; active compounds read low; DMSO median 0, no signal -100; GFP signal change (wild-type ribosome), % (no concentration beside the values); hit rate 1.6% among 350,000;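 active means significant combined selectivity score with lowered wild-type GFP, culture density cut under 30%, mutant RFP and density less affected; inactive means any of these conditions unmet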; further: one replicate is shown; some compounds called inactive have numbers as strong as hits
Ecoli rRNA inh OD600: second read-out of Ecoli rRNA inh, no call of its own (marks repeat the call); OD600 change, %; measured here: OD600 growth;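 optical density of the mix in the first replicate; 0 = DMSO median and -100 = no signal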
Ecoli rRNA inh RFP: further read-out of Ecoli rRNA inh, marked with its call; RFP signal change, %; measured here: RFP humanized mutant strains;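 first replicate; 0 = DMSO median and -100 = no signal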
The depositor's hits bear a star.

Preview:
SMILES	Ecoli rRNA inh	Ecoli rRNA inh OD600	Ecoli rRNA inh RFP
CN1c2ccc(Br)cc2[C@H]2[C@H](CCN2C(=O)c2cccc(F)c2)[C@@H]1CO	-2	4	-0.1
Cc1ccc(-c2ccc([C@@H]3[C@H]4CN(C(=O)c5ccc(F)cc5)CCCCN4[C@H]3CO)cc2)cc1	-7	12	17

Main list, repeating the preview:
SMILES	Ecoli rRNA inh	Ecoli rRNA inh OD600	Ecoli rRNA inh RFP
CN1c2ccc(Br)cc2[C@H]2[C@H](CCN2C(=O)c2cccc(F)c2)[C@@H]1CO	-2	4	-0.1
Cc1ccc(-c2ccc([C@@H]3[C@H]4CN(C(=O)c5ccc(F)cc5)CCCCN4[C@H]3CO)cc2)cc1	-7	12	17
CC(=O)Nc1ccc2c(c1)C(=O)N(C)[C@@H]1CC[C@H](CC(=O)NCc3ccc4c(c3)OCO4)O[C@H]1CO2	1	-8	0.6
Cc1cccc(C)c1NC(=O)C(CCc1ccccc1)N1CCN(CCN(C)C)CC1 (configuration not stated)	-2	-3	3.0
CNC[C@@H]1OCCCC[C@@H](C)Oc2ccc(NC(=O)CCC(F)(F)F)cc2C(=O)N([C@H](C)CO)C[C@H]1C	6	10	1.4
COC(=O)N1Cc2ccnnc2CC1c1ccccc1Br (configuration not stated)	28	12	-0.2
O=C(/C=C(\Nc1ccccc1)c1ccccc1)c1ccccc1	-6	-5	-0.8
C[C@@H]1CN([C@H](C)CO)S(=O)(=O)c2ccc(-c3ccc(C(=O)N(C)C)cc3)cc2O[C@@H]1CN(C)C(=O)C1CC1	3	-2	4.1
COc1ccc(C(=O)C[C@@H]2OC[C@H](Cc3ccccc3)N2S(=O)(=O)c2ccc(C)cc2)cc1OC	8	10	1.9
C[C@H]1CCCCO[C@H](CN(C)CC2CC2)[C@@H](C)CN([C@@H](C)CO)C(=O)c2cc(NC(=O)Nc3ccc(C(F)(F)F)cc3)ccc2O1	-23	-57	33
CO[C@H]1CN(C)C(=O)c2ccc(NS(=O)(=O)CC(F)(F)F)cc2OC[C@@H](C)N(C(=O)NC(C)C)C[C@@H]1C	-2	0	-1.4
Cc1ccccc1-c1cnc2c(c1)C(=O)N([C@@H](C)CO)C[C@@H](C)[C@@H](CN(C)CC1CC1)O2	3	-1	1.1
COc1ccc(S(=O)(=O)Nc2cccc3c2O[C@@H](CN(C)Cc2ccc(Cl)c(Cl)c2)[C@H](C)CN([C@H](C)CO)C3=O)cc1	0	-6	1.5
C[C@H]1CCCCO[C@@H](CN(C)Cc2ccc(C(F)(F)F)cc2)[C@@H](C)CN([C@@H](C)CO)C(=O)c2cc(NC(=O)Nc3ccc(C(F)(F)F)cc3)ccc2O1	-1	3	-4.3
C[C@H]1CN([C@@H](C)CO)C(=O)c2cc(-c3cccc(F)c3)cnc2O[C@H]1CN(C)Cc1cccc(F)c1	1	-2	0.8
C/C=C/c1ccc([C@@H]2[C@H]3CN(S(=O)(=O)c4ccc(OC)cc4)CCCCN3[C@H]2CO)cc1	-6	-13	-2.9
C[C@@H]1CN([C@H](C)CO)C(=O)c2cc(NC(=O)C3CC3)ccc2O[C@@H]1CN(C)Cc1ccc2c(c1)OCO2	0	0	-3.1
C[C@H]1CCCCO[C@@H](CN(C)C(=O)Cc2ccccc2)[C@@H](C)CN([C@@H](C)CO)C(=O)c2cc(NS(=O)(=O)c3ccc(F)cc3)ccc2O1	0	-6	-0.5
COc1ccc(S(=O)(=O)N(C)C[C@H]2Oc3ccc(NS(=O)(=O)c4cn(C)cn4)cc3C(=O)N([C@H](C)CO)C[C@H]2C)cc1	4	3	-1.2
CC(=O)N1[C@H](CO)[C@@H]2c3ccccc3N(C(=O)c3ccccc3)C[C@@H]21	5	-2	-1.3
CN(C)CC(=O)N1CCCCN2[C@H](CO)[C@H](c3ccc(-c4cccc(C(=O)N(C)C)c4)cc3)[C@H]2C1	4	15	-4.8
CC(C)NC(=O)Nc1ccc2c(c1)C(=O)N(C)C[C@@H](C)[C@H](CN(C)C(=O)NC(C)C)O2	1	1	1.4
C[C@H](O)C#Cc1ccc2c(c1)O[C@@H](CN(C)CC1CCOCC1)[C@@H](C)CN([C@@H](C)CO)S2(=O)=O	3	3	-2.0
O=C(c1ccccc1)N1CC[C@@H]2[C@H](CO)Nc3ccc(C#Cc4cccc(F)c4)cc3[C@@H]21	-6	2	0.9
C[C@H]1CCCCO[C@@H](CN(C)C(=O)NC2CCCCC2)[C@@H](C)CN([C@@H](C)CO)C(=O)c2cc(NS(C)(=O)=O)ccc2O1	0	5	-0.9
O=C(NCc1ccccc1)C1C(=O)Nc2ccccc2C(=O)N1Cc1ccccc1 (configuration not stated)	6	5	1.3
CNC(=O)C[C@@H]1CC[C@@H]2[C@H](COc3ccc(NC(=O)C(C)C)cc3C(=O)N2C)O1	5	2	5.5
COCc1cc(N2CCN(C(=O)OC(C)(C)C)C[C@H]2C)ccc1Br	-25	-51	-4.6
C[C@H](CO)N1C[C@H](C)[C@@H](CN(C)C(=O)Nc2ccc3c(c2)OCO3)OCCCC[C@H](C)Oc2ccc(NC(=O)NC3CCCCC3)cc2C1=O	-2	-2	-0.8
CCOC(=O)N(C)C[C@H]1OCc2ccccc2-c2ccccc2C(=O)N([C@H](C)CO)C[C@H]1C	-1	7	-5.1
Cc1cc(C)cc(NC(=O)Nc2ccc3c(c2)C(=O)N(C)[C@@H]2CC[C@@H](CC(=O)O)O[C@@H]2CO3)c1	-1	-8	0.8
COc1ccc(C(C(=O)NC(C)(C)C)n2c(-c3ccc(-c4ccccc4)cc3)nc3ccccc32)cc1 (configuration not stated)	17	16	1.4
COc1ccc(NC(=O)Nc2ccc3c(c2)CC(=O)N([C@@H](C)CO)C[C@@H](C)[C@@H](CN(C)Cc2ccc(C(F)(F)F)cc2)O3)cc1	4	6	1.2
Cc1ccccc1S(=O)(=O)N1CC[C@@H]2[C@@H](CO)N(C)c3ccc(Br)cc3[C@@H]21	-52	-68	-6.0
CCCN(C)C[C@H]1Oc2cc(C#CCC3CCCC3)ccc2S(=O)(=O)N([C@H](C)CO)C[C@H]1C	-21	-25	-2.1
COc1ccc2c3c(n(C)c2c1)[C@H](CO)N(Cc1ccccc1)CC31CN(S(=O)(=O)c2ccc(C)cc2)C1	-1	-22	-4.3
Cc1cccc(NC(=O)Nc2ccc3c(c2)C(=O)N(C)[C@H]2CC[C@@H](CC(=O)NCc4ccccc4Cl)O[C@H]2CO3)c1	-3	-4	0.8
CCCNC(=O)N1CC2(CCN(Cc3ccncc3)CC2)c2c(n(C)c3cc(OC)ccc23)[C@@H]1CO	-4	-4	4.4
CS(=O)(=O)Nc1ccc2c(c1)[C@H]1C[C@@H](CC(=O)NCc3ccc(-c4ccccc4)cc3)O[C@H](CO)[C@H]1O2	-4	-33	6.8
Cc1ccc(S(=O)(=O)Nc2ccc3c(c2)C(=O)N([C@@H](C)CO)C[C@@H](C)[C@H](CN(C)C(=O)c2ccncc2)OCCCC[C@@H](C)O3)cc1	-4	5	-1.3
N#Cc1ccc(-c2ccc3c(c2)[C@H]2[C@H](CCN2C(=O)c2ccncc2)[C@H](CO)N3)cc1	10	-31	-2.5
C[C@@H]1CN([C@@H](C)CO)C(=O)c2cc(NS(C)(=O)=O)ccc2O[C@@H]1CN(C)CC1CC1	0	-3	-1.7
C[C@H]1CN([C@@H](C)CO)C(=O)CCCn2nncc2CO[C@@H]1CN(C)S(C)(=O)=O	2	6	-1.4
CC(C)NC(=O)Nc1ccc2c(c1)C(=O)N(C)[C@H]1CC[C@H](CC(=O)NCC(F)(F)F)O[C@H]1CO2	2	3	0.7
COC(=O)N1Cc2ccnnc2CC1c1ccccc1-c1ccccc1 (configuration not stated)	12	10	2.1
CCC(=O)N1CC[C@H]2[C@@H]1c1cc(-c3ccc(C#N)cc3)ccc1N(C)[C@H]2CO	0	1	-0.7
Nc1nc2c(ncn2[C@@H]2O[C@H](C(=O)N[C@H](Cc3ccccc3)C(=O)NCc3ccccc3)[C@@H](O)[C@H]2O)c(=O)[nH]1	4	8	2.3
C[C@@H]1CN([C@H](C)CO)C(=O)c2cccc(NC(=O)Nc3ccc(C(F)(F)F)cc3)c2O[C@@H]1CN(C)Cc1ccc(C(=O)O)cc1	0	-7	1.9
C[C@@H]1CN([C@@H](C)CO)C(=O)CCCn2cc(nn2)CO[C@@H]1CN(C)C(=O)c1ccc2ccn(C)c2c1	0	-10	1.7
COc1ccc(NC(=O)Nc2ccc3c(c2)CC(=O)N([C@H](C)CO)C[C@H](C)[C@H](CN(C)Cc2ccc(Cl)c(Cl)c2)O3)cc1	0	-10	1.3
O=C(C[C@H]1C[C@@H]2c3cc(NC(=O)Nc4ccc(F)cc4)ccc3O[C@@H]2[C@@H](CO)O1)NCC1CC1	-3	-2	4.5
Cc1ccc(S(=O)(=O)Nc2ccc3c(c2)C(=O)N([C@@H](C)CO)C[C@@H](C)[C@@H](CN(C)C(=O)Nc2ccc4c(c2)OCO4)O3)cc1	2	-3	0.0
COc1cc(CN2CC3(CCN(C(=O)NC(C)C)CC3)c3c(n(C)c4cc(OC)ccc34)[C@@H]2CO)cc(OC)c1	5	1	3.6
CCCn1c(C)c(CC(=O)Nc2ccc(N(C)c3ccccn3)cc2)c2ccccc21	6	4	7.7
COc1ccc(NC(=O)N(C)C[C@H]2Oc3ncc(C#CCN(C)C)cc3C(=O)N([C@H](C)CO)C[C@@H]2C)cc1	1	1	0.0
CN1C(=O)c2cc(NC(=O)NC3CCCC3)ccc2OC[C@H]2O[C@H](CC(=O)NC3CCC3)CC[C@H]21	3	1	-3.3
O=C(Nc1ccc(F)cc1)N1C[C@@H]2[C@H](c3ccccc31)[C@H](CO)N2C(=O)c1ccccn1	-13	3	6.5
CNC(=O)C[C@H]1CC[C@@H]2[C@H](COc3ccc(NC(=O)Nc4c(C)noc4C)cc3C(=O)N2C)O1	1	7	-1.0
C[C@H](CO)N1C[C@H](C)[C@H](CN(C)C(=O)C2CCCCC2)OCCCC[C@H](C)Oc2ccc(NS(=O)(=O)c3cccs3)cc2C1=O	-4	-13	2.1
C[C@H]1CN([C@@H](C)CO)C(=O)Cc2cc(NC(=O)Nc3ccc(C(F)(F)F)cc3)ccc2O[C@H]1CN(C)S(=O)(=O)c1ccc(F)cc1	3	0	-0.3

Sorted by molar mass (descending): 5 of the compounds above
SMILES	Ecoli rRNA inh	Ecoli rRNA inh OD600	Ecoli rRNA inh RFP
Nc1nc2c(ncn2[C@@H]2O[C@H](C(=O)N[C@H](Cc3ccccc3)C(=O)NCc3ccccc3)[C@@H](O)[C@H]2O)c(=O)[nH]1	4	8	2.3
COc1ccc(NC(=O)N(C)C[C@H]2Oc3ncc(C#CCN(C)C)cc3C(=O)N([C@H](C)CO)C[C@@H]2C)cc1	1	1	0.0
CC(C)NC(=O)Nc1ccc2c(c1)C(=O)N(C)[C@H]1CC[C@H](CC(=O)NCC(F)(F)F)O[C@H]1CO2	2	3	0.7
CCCn1c(C)c(CC(=O)Nc2ccc(N(C)c3ccccn3)cc2)c2ccccc21	6	4	7.7
CCC(=O)N1CC[C@H]2[C@@H]1c1cc(-c3ccc(C#N)cc3)ccc1N(C)[C@H]2CO	0	1	-0.7

Going on with the list:
SMILES	Ecoli rRNA inh	Ecoli rRNA inh OD600	Ecoli rRNA inh RFP
C[C@H]1CN([C@@H](C)CO)C(=O)c2cc(NS(C)(=O)=O)ccc2O[C@@H]1CN(C)S(=O)(=O)c1ccccc1	0	1	-1.7
CN1CCN(C(=O)C[C@@H]2CC[C@H]3[C@@H](COC[C@H](O)CN3CC3CCOCC3)O2)CC1	3	15	-4.3
CNC(=O)C[C@@H]1CC[C@@H]2[C@@H](COc3ccc(NC(=O)c4ccc5c(c4)OCO5)cc3C(=O)N2C)O1	2	8	-0.9
CN(C[C@@H]1N[C@@H](CO)[C@@H]1c1ccc(C2=CCCCC2)cc1)S(C)(=O)=O	0	-15	5.4
CC(=O)N(C)C[C@@H]1Oc2c(NC(=O)NC(C)C)cccc2C(=O)N(C)C[C@@H]1C	0	4	-0.7
C[C@@H]1CN([C@@H](C)CO)C(=O)c2ccccc2-c2ccccc2CO[C@H]1CN(C)S(=O)(=O)c1ccccc1F	-4	-12	4.3
C[C@@H]1CCn2cc(nn2)COC[C@H](C)NC1=O	4	10	0.5
Nc1ccn([C@@H]2O[C@H](C(=O)N3CCN(CCO)CC3)[C@@H](O)[C@H]2O)c(=O)n1	13	26	3.5
CC(=O)N(C)C[C@H]1Oc2ccc(NC(=O)NC(C)C)cc2CC(=O)N(C)C[C@H]1C	0	1	-1.7
O=C(c1ccc(F)cc1)N1CC[C@@H]2[C@H]1c1cc(C#Cc3ccccc3F)ccc1N[C@@H]2CO	-5	4	-1.9

An excerpt from above in order of their number in Ecoli rRNA inh OD600, descending.
SMILES | Ecoli rRNA inh | Ecoli rRNA inh OD600 | Ecoli rRNA inh RFP
C[C@@H]1CCn2cc(nn2)COC[C@H](C)NC1=O | 4 | 10 | 0.5
CC(=O)N(C)C[C@@H]1Oc2c(NC(=O)NC(C)C)cccc2C(=O)N(C)C[C@@H]1C | 0 | 4 | -0.7
C[C@@H]1CN([C@@H](C)CO)C(=O)c2ccccc2-c2ccccc2CO[C@H]1CN(C)S(=O)(=O)c1ccccc1F | -4 | -12 | 4.3
CN(C[C@@H]1N[C@@H](CO)[C@@H]1c1ccc(C2=CCCCC2)cc1)S(C)(=O)=O | 0 | -15 | 5.4

This is a subset; count on the stated rates, not on these rows.
